Screens from PubChem.
UCH37 inh = inhibitors of human UCH37 deubiquitinase, primary screen, biochemical, Ub-AMC cleavage, fluorescence; 330,000 tested, 0.33% active; Ubiquitin carboxyl-terminal hydrolase isozyme L5 (Homo sapiens), Q9Y5K5; AID 588478, 2011; purified proteasome/UCH37; inhibition, % (test concentration not listed);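 active means mean of two replicates above 20%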;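 further: 0% = compound-free wells with enzyme and 100% = wells lacking proteasome; stock transfer was 100 nL into about 20 µL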
Target sequence (Q9Y5K5 whole entry, looked up): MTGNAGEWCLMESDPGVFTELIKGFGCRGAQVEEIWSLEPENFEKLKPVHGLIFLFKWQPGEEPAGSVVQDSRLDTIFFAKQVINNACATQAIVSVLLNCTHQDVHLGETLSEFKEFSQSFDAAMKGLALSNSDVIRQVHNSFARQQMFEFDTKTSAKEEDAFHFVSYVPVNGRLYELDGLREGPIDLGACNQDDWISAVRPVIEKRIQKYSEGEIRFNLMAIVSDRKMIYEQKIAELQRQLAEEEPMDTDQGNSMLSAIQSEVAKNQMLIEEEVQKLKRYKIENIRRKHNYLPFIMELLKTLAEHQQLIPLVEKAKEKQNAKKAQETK
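System: Proteasome-associated human UCH37 deubiquitinase; Input: 0.15 nM proteasome in added enzyme buffer; Also added: Ub-AMC substrate from 1 µM stock; Incubation: 30 min compound-proteasome preincubation then 25 min substrate reaction, room temperature; Detection: fluorescence, ex 355 nm, em 460 nm; Read-out: % inhibition of Ub-AMC cleavage fluorescence; Benchmarks: no-proteasome and no-compound wells.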
LANA-H2A inh = blockers of LANA interaction with H2A/H2B – biochemical, FP readout, HTS, primary screen; Protein LANA1 (Human herpesvirus 8 type P (isolate GK18)), Q9QR71; cell-free LANA-H2A/H2B peptide, fluorescence polarization; inhibition, % (concentration not given with the values); 320,000 tested, 0.6% active; AID 2629, 2010; in the data active means inhibition mostly above about 10%, no sharp cut-off; inactive means mostly below about 6.7%;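 further: stock transfer was 7.5 nL into about 10 µL; 0% = median of vehicle wells and 100% = median of positive control wells; one replicate is shown; the record names a cut of 25% in any replicate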
B2AR ag = beta2AR agonists driving receptor internalization, primary screen, cell-based, FAP fluorogen, flow cytometry; AID 504454, 2011; 340,000 tested, 0.43% active; Beta-2 adrenergic receptor (Homo sapiens), P07550; response, % (concentration not given with the values); Am2.2-beta2AR cells; reference of the scale not given here;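 active means response above a set limit, near 3 SD of response in nonfluorescent compounds, cut at about 42% in these data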;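 further: stock transfer was 100 nL into about 11 µL; a reference agonist was the positive control; negative values mostly stem from fluorescent compounds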
Ecoli growth = E. coli growth inhibition, primary screen, OD600 | Escherichia coli growth, 23 h; stronger effect = lower value | OD600 absorbance (test concentration not listed) | 330,000 tested, 0.21% active | AID 1053175, 2014;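 active means OD600 absorbance below the run mean of sample wells minus 3.6 SD, in any replicate, cut at about 0.56 in these data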;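 further: stock transfer was 300 nL into about 60 µL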
ALR inh = inhibitors of human ALR sulfhydryl oxidase, primary screen, biochemical, H2O2 detection, HRP-luminol luminescence, single point; purified ALR, DTT oxidation; AID 485317, 2010; inhibition, % (test concentration not listed); 290,000 tested, 3.8% active;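 active means mean and each replicate at 75% or more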;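 further: stock transfer was 7.5 nL into about 7.5 µL; 0% = neutral wells and 100% = wells with inactivated enzyme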
Target sequence (P55789 whole entry, looked up): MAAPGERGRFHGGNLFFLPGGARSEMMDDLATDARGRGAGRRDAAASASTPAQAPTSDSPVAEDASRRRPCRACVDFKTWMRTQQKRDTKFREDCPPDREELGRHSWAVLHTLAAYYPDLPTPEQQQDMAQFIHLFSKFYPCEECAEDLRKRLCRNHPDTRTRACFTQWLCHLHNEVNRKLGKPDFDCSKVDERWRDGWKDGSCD
FGF22 binding = binders of human FGF22 protein, primary screen, FGF22 synaptogenesis inhibitor project, biophysical, thermal shift, single point. Fibroblast growth factor 22 (Homo sapiens), Q9HCT0. recombinant FGF22 thermal shift, SYPRO orange fluorescence; percent of sucrose octasulfate shift, DMSO zero. calls only at 9.99 µM. 340,000 tested, 1.5% active;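 active means melting point raised past a set limit in the mean and every replicate; three in four hits are not shown here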
Target sequence (Q9HCT0 whole entry, looked up): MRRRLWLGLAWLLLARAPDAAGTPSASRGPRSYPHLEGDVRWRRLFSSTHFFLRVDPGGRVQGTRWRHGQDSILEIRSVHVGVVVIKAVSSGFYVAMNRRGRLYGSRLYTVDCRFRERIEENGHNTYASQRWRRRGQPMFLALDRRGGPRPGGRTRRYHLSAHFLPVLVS
HNF4A DNA FP = change in binding of human HNF4A to DNA, primary screen, biochemical, fluorescence polarization, FITC-DNA | 1 h | activity change, % at 10 µM | 360,000 tested, 0.3% active | AID 1224865, 2016; in the data active means activity change above about 30%, passing the limit was not always enough;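 further: controls were the assay level and a saturating level of protein; the project sought stronger binding though the title names inhibitors; some compounds called inactive have numbers as strong as hits; positive values seem to mean higher polarization but the record does not say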
* hit, by the source's call; i = inactive; . = no result given.

SMILES	UCH37 inh	LANA-H2A inh	B2AR ag	Ecoli growth	ALR inh	FGF22 binding	HNF4A DNA FP
CCOc1ccc(CC(=O)NCc2ccc3c(c2)cc(C)n3C)cc1	4.9	-3.3	-8.1	0.756	.	i	1.3
O=C(CNC(=O)c1sc2ccccc2c1Cl)NC1CC1	-1.1	-7.1	-6.2	0.618	-1.8	i	1.3
CC(=O)NC(Cc1ccccc1)C(=O)OCC(=O)c1ccccc1 (stereo unspecified)	2.7	11.0	4.8	0.665	.	.	0.7
O=c1c2sccc2n(Cc2cccc(F)c2)c(=O)n1-c1ccc(F)cc1	-0.2	6.9	1.0	0.661	1.4	.	2.9
O=C(N=C1SC2CS(=O)(=O)CC2N1c1ccc(Cl)cc1Cl)C1CCCO1 (stereo unspecified)	2.6	-1.3	13.0	0.672	-2.9	i	1.9
Cc1ccc(-c2ccc([C@H]3[C@H]4C=CC[C@@H](C)[C@@H]4C(=O)N3Cc3ccccc3)c(F)c2)cc1	-1.2	-3.6	17.3	.	-2.5	i	-2.6
CC(=O)Nc1cccc(-n2nnc(SCC(=O)Nc3ccccc3)n2)c1	2.1	-12.0	-6.1	0.61	-2.5	i	3.5
CCn1c(N2CCN(C(=S)Nc3ccc(OC)cc3)CC2)nc2ccccc21	5.0	-0.2	-9.4	0.662	.	i	-3.0
COCC(C)N1CCC(n2nccc2NC(=O)c2ccccc2Cl)CC1 (stereo unspecified)	-1.8	-5.0	0.7	0.7	-0.7	i	-3.7
C=CCC[C@H](Cc1ccc(F)cc1)C(=O)OC[C@H](Cc1c[nH]c2ccccc12)NC(=O)[C@@H](CC=C)CC(=O)NCCO	25.2*	-2.9	-16.4	.	-2.3	i	-3.0
CC(C)Oc1ccc(/C(O)=C2/C(=O)C(=O)N(CCN3CCOCC3)C2c2ccccc2)cc1 (stereo unspecified)	13.7	-2.4	-3.0	0.778	1.7	.	-1.9
Cc1cc2cc(CCNC(=O)c3cccc([N+](=O)[O-])c3)c(=O)[nH]c2cc1C	.	2.5	0.8	.	-0.3	.	-0.8
O=C1NN(c2cccc(Br)c2)C(=O)/C1=C/c1ccc(-c2cc([N+](=O)[O-])ccc2O)o1	30.6*	2.0	.	0.698	6.0	.	-15.7
COc1ccccc1/C=C/C=N/n1c(-c2ccc(Cl)cc2)n[nH]c1=S	.	-6.0	10.6	.	22.4	i	-2.1
Cc1ccc2nc(SCc3nnc(-c4ccccc4[N+](=O)[O-])o3)c(C#N)cc2c1	0.7	.	-12.3	0.763	.	i	-0.8
CC(=O)Nc1ccc(S(=O)(=O)Nc2nc3n(n2)C(c2ccccc2)CC(=O)N3)cc1 (stereo unspecified)	2.7	0.0	-1.2	0.789	2.0	.	1.8
Cc1c(C(=O)Nc2ccc(S(=O)(=O)Nc3ncccn3)cc2)oc2ccc(F)cc12	-4.2	1.3	9.2	0.699	-21.0	i	2.5
NS(=O)(=O)c1ccc(NC(=O)COC(=O)CC2Sc3ccccc3NC2=O)cc1 (stereo unspecified)	0.7	-1.2	3.3	0.655	0.7	i	1.2
CCOc1c(CNCCCSc2nc(C)cc(C)n2)cccc1OC	3.7	2.2	-4.0	0.646	-5.0	i	3.5
O=C(N/N=C(\c1ccccc1)c1cccnc1)c1ccc(O)cc1	.	-1.6	0.6	.	-6.3	i	-1.6
CC(C)CC1NC(=O)c2ccccc2-n2c1nc1cc(F)ccc1c2=O (stereo unspecified)	.	-1.4	.	.	-3.8	i	.
CCOC(=O)CSc1ncccn1	5.3	1.6	-0.8	0.728	-7.1	i	5.3
Cc1ccc(S(=O)(=O)NC(=O)COc2ccccc2C(N)=O)cc1	1.9	2.0	8.7	0.702	-37.9	.	2.7
CC1CCN(c2ccc([N+](=O)[O-])c(SCCO)c2)CC1	7.9	9.0	-8.6	0.689	-5.6	i	4.6
O=C(Nc1ccc(F)cc1)C1CCCO1 (stereo unspecified)	1.1	-1.1	8.5	0.703	-4.0	i	0.9

As a working copy, some entries already given.
SMILES	UCH37 inh	LANA-H2A inh	B2AR ag	Ecoli growth	ALR inh	FGF22 binding	HNF4A DNA FP
CC(=O)NC(Cc1ccccc1)C(=O)OCC(=O)c1ccccc1 (stereo unspecified)	2.7	11.0	4.8	0.665	.	.	0.7
O=c1c2sccc2n(Cc2cccc(F)c2)c(=O)n1-c1ccc(F)cc1	-0.2	6.9	1.0	0.661	1.4	.	2.9

(next part)
SMILES	UCH37 inh	LANA-H2A inh	B2AR ag	Ecoli growth	ALR inh	FGF22 binding	HNF4A DNA FP
COc1ccc(CCN(C)C2CCCN(C(=O)Cn3cnnn3)C2)cc1OC (stereo unspecified)	3.5	2.6	-2.2	0.744	-18.0	i	1.6
O=C(COC(=O)C1CCN(S(=O)(=O)c2ccccc2C(F)(F)F)CC1)NCc1ccc(F)cc1	2.2	-3.7	-1.2	0.661	-0.2	i	1.9
Cc1ccc(S(=O)(=O)N2CCC(C(=O)NCCCN3CCCC3=O)CC2)cc1C	-1.6	-4.7	1.5	0.677	-3.1	i	4.0
CCCc1c(C)c2cc(C)ccc2[nH]c1=O	-2.8	-1.1	9.8	0.71	8.7	.	-0.2
CCCn1c2ccc(C)cc2c2nnc(SCCN3CCOCC3)nc21	10.0	-0.9	0.6	0.649	12.8	i	0.7
O=C(COC(=O)/C=C/c1cccc(Cl)c1)NC1CCCC1	.	-11.8	-0.5	.	3.4	i	0.2
NCC(=O)N1CCC(C(=O)N[C@@H](Cc2c[nH]c3ccccc23)C(=O)O)CC1	1.8	3.9	6.5	0.681	8.9	i	1.0
O=C(CNC(=O)Cc1cccc2ccccc12)NCc1ccc(F)cc1	5.7	-7.9	22.6	0.662	-9.5	i	1.2
Cc1ccn2c(=O)c(NC(=O)COc3ccccc3)c(C)nc2c1	-9.5	0.7	-7.9	0.649	-3.8	i	4.3
CC(=O)NC1=C(C#N)C(c2ccccc2)c2c(ccc3ccccc23)O1 (stereo unspecified)	1.4	-0.1	1.4	0.679	1.1	.	3.1
Cc1ccc(C2CC(c3cccs3)=NN2C(=O)CSc2nc(=O)n3ccc(C)cc3n2)cc1 (stereo unspecified)	.	.	2.0	.	.	i	-2.8
COC(=O)c1ccc(/C=C2/SC(=S)N(CCC(=O)N3CCOCC3)C2=O)cc1	5.9	-2.9	-3.6	0.651	-15.1	i	-0.1
CCCCNc1cc(=O)n(C)c(=O)n1C	2.1	2.8	-0.8	0.71	-4.5	.	0.1
CCOC(=O)c1c(C)n(CC(O)CN(C)C)c2cc(Br)c(OC)cc12 (stereo unspecified)	7.5	-1.5	-5.6	0.743	-9.1	i	2.6
Cc1ccc(C(=O)NC(=S)NCC2CCCO2)cc1 (stereo unspecified)	3.7	-6.4	-13.1	0.805	-1.2	.	1.1
Cc1nn(-c2ccccc2)c(C)c1NC(=O)COC(=O)[C@@H](NC(=O)c1ccccc1)C(C)C	4.0	.	-1.1	0.691	.	i	0.3
Cc1ccc(O)c(NC(=O)c2cc(-c3ccccc3Cl)on2)c1	-2.6	-2.8	0.2	0.668	0.9	i	-0.3
CCCn1c(SCC(=O)Nc2nc3ccccc3s2)nc2c1c(=O)n(C)c(=O)n2C	0.8	-2.4	13.9	0.765	-19.7	.	0.6
Cc1sc2ncnc(N3CCC(C(=O)N4CC(C)SC4=Nc4ccc(Cl)cc4)CC3)c2c1C (stereo unspecified)	1.9	.	6.0	0.736	.	i	-2.7
Cc1cccc(C(=O)OCC(=O)NCCCc2ccccc2)c1	-0.2	-5.4	4.0	0.682	-2.8	i	1.9
Cc1cc(C(=O)N/N=C/c2ccc(-c3ccc([N+](=O)[O-])cc3C)o2)n[nH]1	.	-2.5	15.1	.	-16.1	i	9.7
Cc1cccc2nnc(-c3ccccc3)n12	-1.8	.	0.7	0.659	.	i	-2.8
Cc1csc(NC(=O)CSc2ccc([N+](=O)[O-])cn2)n1	5.1	2.6	1.9	0.713	37.2	i	-1.4
CNC(=O)N1c2ccccc2NC(=O)CC1C (stereo unspecified)	0.1	-0.5	3.7	0.699	-6.8	i	2.2
O=C(Cn1c(=O)oc2ccccc21)N1CCN(S(=O)(=O)c2ccccc2)CC1	4.8	7.4	4.5	0.702	20.5	i	2.5

The listing continues.
SMILES	UCH37 inh	LANA-H2A inh	B2AR ag	Ecoli growth	ALR inh	FGF22 binding	HNF4A DNA FP
O=C(NC1CCCCC1)N1CCN(Cc2ccco2)CC1	2.6	12.9	-4.3	0.67	2.1	i	-0.8
Cc1cccc(NC(=O)CCN2C(=O)c3cccc([N+](=O)[O-])c3C2=O)c1	4.4	-0.5	-2.1	0.665	-14.7	i	-0.3
OCCC1CN(C2CCSCC2)CCN1C1CCCC1 (stereo unspecified)	-2.6	.	-0.9	0.727	.	i	1.1
COc1ccc(OCC(=O)Nc2ccc3c(c2)nc(CCN2CCCC2)n3C)cc1	1.5	-1.8	8.5	0.688	-0.3	i	3.4
O=C(CCSc1nnc(-c2ccncc2)o1)Nc1cccc(Cl)c1	0.7	1.4	-3.0	0.713	-9.7	i	-1.2
CC(=O)c1c(C)cc(C)c(CSc2ccccn2)c1C	4.6	13.9	-8.6	0.653	-3.8	i	1.2
OC(COc1ccccc1)CN1CCN(c2cccc(Cl)c2)CC1 (stereo unspecified)	.	.	-5.0	.	.	i	-1.4
COC(=O)c1[nH]c2ccccc2c1NC(=O)CN1CCN(C(=O)c2ccco2)CC1	-2.0	-2.2	-7.0	0.684	0.8	.	0.3
CN1CCN(C(=O)CCCN2C(=O)/C(=C/c3ccc(Cl)cc3)SC2=S)CC1	6.8	-4.4	5.7	0.67	37.7	.	-2.5
Cc1cc(C)cc(NC(=O)CCNC(=O)c2ccc([N+](=O)[O-])cc2)c1	3.9	2.5	-7.8	0.678	-6.9	i	0.3
CC(=O)OCC1(C)CN(c2ccccc2)N(C(=O)c2ccc(C(C)(C)C)cc2)C1=O (stereo unspecified)	2.3	.	4.0	0.719	.	i	2.3
COc1ccc(CCNC(=O)C2CCN(S(=O)(=O)c3ccc(SC)cc3)CC2)cc1	-0.2	-5.3	1.5	0.711	-7.9	i	2.5
CCOC(=O)c1c([N+](=O)[O-])c(C)[nH]c(=O)c1C#N	0.1	-4.6	-8.1	0.675	-2.7	i	-0.6
N#C/C(=C\c1ccc(OCc2ccccc2)cc1)C(=O)Nc1nc2c(s1)CCN(Cc1ccccc1)C2	-2.6	1.7	10.8	0.73	-0.6	.	28.0
CS(=O)(=O)N1CCN(c2ccccc2NC(=O)Cc2ccccc2)CC1	3.7	1.6	4.3	0.756	-8.1	.	2.1
CNC[C@H](Cc1ccccc1)NC[C@@H](Cc1cccc2ccccc12)NCCc1ccc(C)cc1	2.4	-1.9	98.1*	.	-41.9	i	6.3
O=C1CC[C@@H](O)CCN1CC[C@H](Sc1ccc(Br)cc1)c1ccccc1	-0.2	7.8	-0.7	.	-1.8	i	-1.1
COc1ccc(/C=N/N2CCN(C3c4ccccc4-c4ccccc43)CC2)cc1OC	.	-3.4	1.7	.	0.2	.	2.0
O=C(CSC1=Nc2ccccc2C2=NC(c3ccccc3)C(=O)N12)NC1CCCCC1 (stereo unspecified)	-175.6	0.7	12.4	0.736	-1.0	.	1.2
O=C(COC(=O)COc1cccc(F)c1)NCC1CCCCC1	1.8	-2.7	11.1	0.686	.	i	-0.4
CC(=O)Nc1cccc(C(=O)OCC(=O)NCc2cc(C)c(O)c(C)c2)c1	-1.0	-1.5	-0.8	0.645	25.7	i	7.9
COc1ccc(NC(=O)CNC(=O)c2ccco2)cc1	0.8	0.7	4.7	0.59	.	i	-4.4
N#Cc1nc(COc2ccc(Cl)cc2)oc1N1CCN(Cc2ccccc2)CC1	3.6	-5.2	-2.5	0.736	-9.9	.	1.2

A portion of the library; rates above refer to the full screens.
